Compound activity deposited in PubChem BioAssay by Broad Institute.
FGF22 binding – binders of recombinant human FGF22 by thermal shift; SYPRO orange fluorescence; percent of sucrose octasulfate shift, DMSO zero; Q9HCT0; AID 651658; calls only at 9.99 µM; hit rate 1.5% among 340,000;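 active = melting point raised past a set limit in the mean and every replicate; three in four hits are not shown here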
Target sequence (Q9HCT0 whole entry, looked up): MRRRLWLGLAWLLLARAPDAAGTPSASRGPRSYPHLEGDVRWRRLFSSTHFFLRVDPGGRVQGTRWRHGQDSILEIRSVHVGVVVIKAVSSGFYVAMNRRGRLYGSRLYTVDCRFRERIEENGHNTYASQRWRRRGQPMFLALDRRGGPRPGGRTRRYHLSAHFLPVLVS
rRNA inh HTS – selective bacterial rRNA inhibition in E. coli. E. coli WT GFP vs humanized-ribosome RFP mutants, fluorescence, 24 h; active compounds read low; DMSO median 0, no signal -100. GFP signal change (wild-type ribosome), % (concentration not given with the values). hit rate 1.6% among 350,000;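 active = significant combined selectivity score with lowered wild-type GFP, culture density cut under 30%, mutant RFP and density less affected; inactive = any of these conditions unmet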; note: one replicate is shown; some compounds called inactive have numbers as strong as hits
rRNA inh HTS OD600 – further read-out of rRNA inh HTS, marked with its call; OD600 change, %; measured here: OD600 growth;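 optical density of the mix in the first replicate; 0 = DMSO median and -100 = no signal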
rRNA inh HTS RFP – second read-out of rRNA inh HTS, no call of its own (marks repeat the call); RFP signal change, %; measured here: RFP humanized mutant strains;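 first replicate; 0 = DMSO median and -100 = no signal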
The depositor's hits bear a star; i = inactive; & = joins results of further samples.

cpd | canonical_smiles | rRNA inh HTS OD600 | rRNA inh HTS | FGF22 binding | rRNA inh HTS RFP
1 | CN1C(=O)c2cc(NC(=O)c3cscn3)ccc2OC[C@@H]2O[C@H](CC(=O)NCC3CC3)CC[C@H]21 | 11.4 | 3.9 | i | -1.4
2 | C[C@H]1CCCCO[C@H](CN(C)Cc2ccc(C(F)(F)F)cc2)[C@@H](C)CN([C@@H](C)CO)C(=O)c2cc(NC(=O)Cc3ccccc3)ccc2O1 | -18.0 | -1.8 | i | 30.8
3 | COc1cccc(C(=O)Nc2ccc3c(c2)C(=O)N(C)[C@H]2CC[C@H](CC(=O)NCc4ccc(F)cc4)O[C@H]2CO3)c1 | -9.6 | -5.2 | i | 1.8
4 | COC(=O)C[C@H]1CC[C@@H]2[C@H](COc3ccc(NS(=O)(=O)c4ccccc4F)cc3C(=O)N2C)O1 | 1.3 | -0.1 | i | 1.2
5 | C[C@H]1CN([C@@H](C)CO)C(=O)Cc2cc(NS(=O)(=O)c3ccc(F)cc3)ccc2O[C@H]1CN(C)S(=O)(=O)c1ccc(Cl)cc1 | -3.8 | 1.6 | i | 2.2
6 | CC(=O)N1CCN(c2ccc(N3CCN(C(C)=O)[C@H](C)C3)c(C)c2)[C@H](C)C1 | 12.3 | 6.3 | i | -1.4
7 | COC(=O)C1=C(C)N(Cc2cccc(C(F)(F)F)c2)C(=NCc2cc(OC)c(OC)c(OC)c2)NC1c1ccc(F)cc1 (stereo unspecified) | -74.0 | -42.9 | i | -16.9
8 | C[C@H]1CCCCO[C@H](CN(C)Cc2ccc(C(F)(F)F)cc2)[C@@H](C)CN([C@@H](C)CO)C(=O)c2cc(NC(=O)Nc3cccc4ccccc34)ccc2O1 | 4.4 | -0.4 | i | -0.5
9 | CCC(=O)N1C[C@@H](O)COC[C@H]2O[C@@H](CC(=O)NCc3ccccc3Cl)CC[C@@H]21 | 1.4 | -2.4 | i | 3.4
10 | O=C(C[C@@H]1CC[C@H]2[C@@H](COC[C@@H](O)CN2C(=O)c2cccnc2)O1)NCC1CC1 | 4.6 | 2.2 | i | 2.1

Carrying on.
cpd | canonical_smiles | rRNA inh HTS OD600 | rRNA inh HTS | FGF22 binding | rRNA inh HTS RFP
11 | CNC(=O)C[C@@H]1CC[C@H]2[C@@H](COc3ccc(NC(=O)NC(C)C)cc3C(=O)N2C)O1 | -3.8 | 2.2 | i | -0.8
12 | C=CC[C@]12C[C@@]3(O[C@H](C4CCCCC4)N=C3C[C@H](c3ccc(OC)cc3)[C@H]1C)N(Cc1ccncc1)C2=O | 11.9 | 22.5 | i | 3.9
13 | C[C@@H]1CN([C@@H](C)CO)C(=O)Cc2cc(NC(=O)CCCCCC(=O)Nc3ccccc3N)ccc2O[C@H]1CN(C)C(=O)Nc1ccc(C(F)(F)F)cc1 | -12.0 | -3.1 | i | -2.0
14 | COc1ccccc1CNC(=O)C[C@H]1C[C@H]2c3cc(NC(=O)CC4CC4)ccc3O[C@H]2[C@@H](CO)O1 | 1.7 | -2.1 | i | -4.1
15 | CN1C(=O)c2cc(NC(=O)c3cccc(F)c3)ccc2OC[C@@H]2O[C@H](CC(=O)O)CC[C@H]21 | 2.1 | 0.6 | i | 0.9
16 | CCCNC(=O)C[C@@H]1CC[C@H]2[C@@H](COc3ccc(NC(=O)c4ccc(OC)cc4)cc3C(=O)N2C)O1 | 0.0 | 0.2 | i | -2.3
17 | O[C@@H](Cc1ccccc1)[C@@H](/C=C/c1ccccc1)N(Cc1ccccc1)Cc1ccccc1 | 26.1 | 22.8 | i | 8.1
18 | CC(=O)C1=C(C)N(Cc2ccc(F)cc2)C(=S)NC1c1ccccc1 (stereo unspecified) | -3.0 | -8.9 | i | 8.8
19 | COc1ccc(S(=O)(=O)Nc2ccc3c(c2)C(=O)N([C@@H](C)CO)C[C@@H](C)[C@H](CN(C)S(=O)(=O)c2ccc(OC)cc2)OCCCC[C@@H](C)O3)cc1 | -6.2 | -3.4 | i | 0.4
20 | COc1ccc(C2CC(=O)C(c3cccc(OC)c3)=CN2Cc2ccccc2)cc1 (stereo unspecified) | -13.4 | -16.9 | i | 1.6

Next structures
cpd | canonical_smiles | rRNA inh HTS OD600 | rRNA inh HTS | FGF22 binding | rRNA inh HTS RFP
21 | CNC(=O)C[C@@H]1CC[C@H]2[C@H](COc3ccc(NC(=O)C4CC4)cc3C(=O)N2C)O1 | -1.0 | 0.6 | i | -1.0
22 | Cc1cccc(C)c1[N+](=O)[O-] | 8.9 | -0.1 | i | 0.4
23 | CC(=O)N1CC2(C1)[C@@H](c1ccc(-c3ccccc3C)cc1)[C@@H](CO)N2C(C)=O | -2.9 | -5.2 | i | -0.4
24 | COc1cccc(-c2ccc3c(c2)O[C@@H](CN(C)C(=O)c2ccccc2F)[C@H](C)CN([C@H](C)CO)S3(=O)=O)c1 | -18.2 | -2.7 | i | 0.2
25 | CNC(=O)C[C@H]1CC[C@H]2[C@@H](COc3ccc(NC(=O)CC(F)(F)F)cc3C(=O)N2C)O1 | 2.8 | 4.5 | i | -1.0
26 | Cc1cc(N2CCN(C(=O)OC(C)(C)C)C[C@@H]2C)ccc1N1C[C@@H](C)O[C@@H](C)C1 | 12.4 | -10.2 | i | -7.8
27 | C[C@@H]1CCCCO[C@@H](CN(C)C(=O)Nc2ccc(C(F)(F)F)cc2)[C@@H](C)CN([C@H](C)CO)C(=O)c2cc(NC(=O)Cc3ccccc3)ccc2O1 | -2.2 | 5.7 | i | -0.8
28 | C[C@@H]1CCCCO[C@H](CN(C)C(=O)CCC(F)(F)F)[C@@H](C)CN([C@@H](C)CO)C(=O)c2cc(NC(=O)CCCCCC(=O)Nc3ccccc3N)ccc2O1 | -5.2 | -3.2 | i | -1.1
29 | C/C=C/c1ccc([C@@H]2[C@@H](CO)N(C(C)=O)[C@H]2CN(CCC)C(C)=O)cc1 | -1.8 | 1.5 | i | 0.9
30 | COCCNC(=O)C[C@H]1C[C@H]2c3cc(NS(=O)(=O)c4ccc(F)cc4)ccc3O[C@H]2[C@@H](CO)O1 | -0.2 | -1.3 | i | -1.0

New compounds follow:
cpd | canonical_smiles | rRNA inh HTS OD600 | rRNA inh HTS | FGF22 binding | rRNA inh HTS RFP
31 | COc1ccc(S(=O)(=O)Nc2ccc3c(c2)C(=O)N([C@@H](C)CO)C[C@H](C)[C@@H](CN(C)S(=O)(=O)c2ccc(OC)cc2)OCCCC[C@H](C)O3)cc1 | -4.2 | -4.5 | i | 0.8
32 | c1cncc(-c2ccc(C3[C@@H]4CN(Cc5ccc6c(c5)OCO6)C[C@H]3N4)cc2)c1 (stereo partly specified) | -9.1&-2.8 | 2.1&-5.2 | i | -0.1&2.5
33 | COc1ccc(NC(=O)Nc2cccc3c2O[C@@H](CN(C)C(=O)Nc2ccc(C(F)(F)F)cc2)[C@@H](C)CN([C@@H](C)CO)C3=O)cc1 | -16.7 | -14.8 | i | 1.2
34 | C[C@@H]1CN([C@@H](C)CO)C(=O)c2cc(NS(=O)(=O)c3ccccc3)ccc2O[C@@H](C)CCCCO[C@H]1CN(C)Cc1ccc(C(=O)O)cc1 | -2.9 | -1.9 | i | -1.6
35 | Cc1noc(C)c1NC(=O)Nc1ccc2c(c1)CC(=O)N([C@@H](C)CO)C[C@H](C)[C@@H](CN(C)C(=O)NC(C)C)O2 | 11.6 | 4.2 | i | 2.4
36 | CCCNC(=O)N1C[C@H]2[C@@H](c3ccccc31)[C@@H](CO)N2C(=O)NC(C)C | 8.7 | 0.2 | i | -1.0
37 | C[C@H](CO)N1C[C@H](C)[C@H](CN(C)C(=O)CCCN(C)C)OCCCC[C@H](C)Oc2ccc(NC(=O)Nc3ccc(C(F)(F)F)cc3)cc2C1=O | -56.8 | -26.6 | i | 31.6
38 | COC(=O)C1=C(C)N(Cc2ccc(C(F)(F)F)cc2)C(=NCc2ccccc2C(F)(F)F)NC1c1cccc(Cl)c1 (stereo unspecified) | 32.2 | 13.4 | i | 4.8
39 | NC(=O)c1ncn([C@@H]2O[C@H](C(=O)N[C@H](Cc3c[nH]c4ccccc34)C(=O)N3CCN(C(=O)C4CC4)CC3)[C@@H](O)[C@H]2O)n1 | 18.4 | 20.7 | i | 0.0
40 | CN(C)C(=O)c1cccc(-c2ccc(C3[C@@H]4CN(Cc5cocn5)C[C@H]3N4)cc2)c1 (stereo partly specified) | 6.4 | -0.9 | i | 0.6

Following part:
cpd | canonical_smiles | rRNA inh HTS OD600 | rRNA inh HTS | FGF22 binding | rRNA inh HTS RFP
41 | CCCNC(=O)C[C@@H]1CC[C@H]2[C@@H](COc3ccc(NC(=O)Cc4cccs4)cc3C(=O)N2C)O1 | 1.6 | -0.8 | i | -0.1
42 | CCn1cc(C(=O)Nc2ccc(Oc3cccnc3)cc2)c2ccccc21 | -24.9 | -7.1 | i | 2.0
43 | CO[C@@H]1CN(C)C(=O)c2cc(NC(=O)C3CC3)ccc2OC[C@@H](C)N(C(=O)CN2CCOCC2)C[C@@H]1C | 2.0 | 1.4 | i | -3.2
44 | CCCc1c(-c2ccc(OC)cc2)ncn1CCc1ccccc1OC | -77.8 | -53.7 | i | -17.6
45 | O=C(Nc1ccc(F)cc1)N1C[C@@H]2[C@H](c3ccccc31)[C@@H](CO)N2C(=O)c1ccccn1 | 0.9 | -0.1 | i | 0.2
46 | Nc1nc2c(ncn2[C@@H]2O[C@H](C(=O)N[C@H](Cc3ccccc3)C(=O)NC3CCCCC3)[C@@H](O)[C@H]2O)c(=O)[nH]1 | 13.4 | 4.9 | i | 4.7
47 | C[C@H](CO)N1C[C@H](C)[C@H](CN(C)C(=O)CCC(F)(F)F)OCCCC[C@H](C)Oc2ccc(NS(=O)(=O)c3cccs3)cc2C1=O | -13.8 | -3.9 | i | 2.5
48 | C[C@H](CO)N1C[C@H](C)[C@@H](CN(C)S(=O)(=O)c2cccs2)OCCCC[C@H](C)Oc2ccc(NC(=O)NC3CCCCC3)cc2C1=O | 3.9 | 0.4 | i | 1.9
49 | CC(C)C(=O)Nc1ccc2c(c1)C(=O)N(C)[C@@H]1CC[C@H](CC(=O)N[C@@H](C)c3ccccc3)O[C@@H]1CO2 | 0.4 | -3.4 | i | 1.7
50 | COC(=O)C1=C(C)N(Cc2ccc(C(F)(F)F)cc2)C(=NCc2ccccc2C(F)(F)F)NC1c1ccc(C(F)(F)F)cc1 (stereo unspecified) | 34.1 | 28.6 | i | 8.8

(next part)
cpd | canonical_smiles | rRNA inh HTS OD600 | rRNA inh HTS | FGF22 binding | rRNA inh HTS RFP
51 | C[C@@H]1CN([C@@H](C)CO)C(=O)Cc2cc(NC(=O)Nc3ccc4c(c3)OCO4)ccc2O[C@H]1CN(C)C(=O)Nc1ccc(F)cc1 | 5.6 | -1.1 | i | 1.6
52 | C[C@@H]1C=CCCO[C@]12C(=O)Nc1ccccc12 | 28.0 | 30.8 | i | 7.0
53 | CN[C@H]1C[C@H]2c3[nH]c4c(-c5ccccc5)cccc4c3CCN2C(=O)[C@H]1[C@H](C)O | -70.1 | -35.6 | i | -2.5
54 | C[C@H](CO)N1C[C@H](C)[C@@H](CN(C)S(=O)(=O)c2ccc(F)cc2)OCCCC[C@H](C)Oc2ccc(NC(=O)Cc3ccccc3)cc2C1=O | 15.2 | 1.2 | i | 3.6
55 | CCC(=O)N1CC[C@@H]2[C@H]1c1cc(-c3ccccc3)ccc1N[C@@H]2CO | -2.9 | -5.9 | i | 0.2
56 | COCC#Cc1ccc([C@H]2[C@H](CO)N3CCCCN(S(=O)(=O)c4cccc(OC)c4)C[C@@H]23)cc1 | -18.6 | -6.2 | i | 11.2
57 | CN(C)CC(=O)N1C[C@@H]2N[C@H](C1)C2c1ccc(C2=CCCCC2)cc1 (stereo partly specified) | 3.6 | 1.8 | i | 6.1
58 | COCC(=O)Nc1ccc2c(c1)C(=O)N(C)[C@H]1CC[C@H](CC(=O)NCc3ccc(OC)cc3)O[C@H]1CO2 | -1.6 | 0.7 | i | -1.7
59 | O=C(Nc1ccc2c(c1)[C@H]1C[C@@H](CC(=O)N3CCOCC3)O[C@H](CO)[C@H]1O2)c1ccc2c(c1)OCO2 | -1.6 | -1.4 | i | -2.7
60 | Cc1cc(-c2cc(NC(=O)Cc3c(C)[nH]c4ccccc34)ccc2Nc2cccnc2)ccc1F | -2.1 | -5.6 | i | 2.7

Further structures.
cpd | canonical_smiles | rRNA inh HTS OD600 | rRNA inh HTS | FGF22 binding | rRNA inh HTS RFP
61 | C[C@H]1CN([C@@H](C)CO)C(=O)Cc2cc(NC(=O)Nc3cccc4ccccc34)ccc2O[C@H]1CN(C)S(=O)(=O)c1cccs1 | -6.5 | 2.0 | i | 1.8
62 | C[C@@H]1CN([C@H](C)CO)C(=O)Cc2cc(NS(=O)(=O)c3cn(C)cn3)ccc2O[C@H]1CN(C)Cc1ccc2c(c1)OCO2 | 3.2 | 2.6 | i | -0.6
63 | CO[C@@H]1CN(C)C(=O)c2cc(NC(=O)c3ccc(Oc4ccccc4)cc3)ccc2OC[C@@H](C)NC[C@@H]1C | -20.2 | -3.2 | i | 4.8
64 | CO[C@@H]1CN(C)C(=O)c2ccc(NC(=O)C3CCOCC3)cc2OC[C@@H](C)NC[C@@H]1C | 6.8 | -0.8 | i | -1.1
65 | C[C@@H]1CN([C@H](C)CO)C(=O)c2cc(NC(=O)Nc3cccc4ccccc34)ccc2O[C@@H](C)CCCCO[C@H]1CN(C)S(=O)(=O)c1cccs1 | -4.6 | -5.6 | i | -2.5

Only part of the results is shown; count on the stated rates, not on these rows.
